FGF22 binding – shifts melting point of recombinant human FGF22 | Q9HCT0 | recombinant FGF22 thermal shift, SYPRO orange fluorescence; percent of sucrose octasulfate shift, DMSO zero | calls only at 9.99 µM | actives 1.5% (n = 340,000) | AID 651658;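 active means melting point raised past a set limit in the mean and every replicate; inconclusive means no clear call; three in four hits are not shown here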
Target sequence (Q9HCT0 whole entry, looked up): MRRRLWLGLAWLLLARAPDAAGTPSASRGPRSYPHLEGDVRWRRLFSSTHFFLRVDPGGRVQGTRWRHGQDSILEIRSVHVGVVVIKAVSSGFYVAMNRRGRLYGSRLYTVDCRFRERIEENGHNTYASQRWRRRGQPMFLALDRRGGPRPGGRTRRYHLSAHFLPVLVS
rRNA inh HTS – inhibitors of bacterial rRNA selective over humanized ribosomes; AID 720706; GFP signal change (wild-type ribosome), % (test concentration not listed); E. coli WT GFP vs humanized-ribosome RFP mutants, fluorescence, 24 h; stronger effect = lower value; DMSO median 0, no signal -100; actives 1.6% (n = 350,000);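 active means significant combined selectivity score with lowered wild-type GFP, culture density cut under 30%, mutant RFP and density less affected; inactive means any of these conditions unmet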; further: one replicate is shown; some compounds called inactive have numbers as strong as hits
ALR H2O2 inh – inhibitors of human sulfhydryl oxidase ALR. P55789. purified ALR, DTT oxidation, H2O2 HRP-luminol luminescence. inhibition, % (concentration not given with the values). actives 3.8% (n = 290,000). AID 485317;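 active means mean and each replicate at 75% or more; inconclusive means only one of the two met; inactive means neither met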;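 further: stock transfer was 7.5 nL into about 7.5 µL; 0% = neutral wells and 100% = wells with inactivated enzyme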
Target sequence (P55789 whole entry, looked up): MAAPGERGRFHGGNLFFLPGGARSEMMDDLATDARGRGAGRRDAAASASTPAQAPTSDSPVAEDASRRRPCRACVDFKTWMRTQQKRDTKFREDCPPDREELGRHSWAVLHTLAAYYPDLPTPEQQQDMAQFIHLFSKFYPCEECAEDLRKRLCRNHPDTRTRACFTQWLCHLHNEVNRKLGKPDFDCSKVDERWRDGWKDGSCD
HNF4A DNA FP – change in binding of human HNF4 alpha to DNA. actives 0.3% (n = 360,000). P41235. activity change, % at 10 µM. HNF4a-FITC DNA binding, fluorescence polarization, 1 h; in the data active means activity change above about 30%, passing the limit was not always enough;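 further: controls were the assay level and a saturating level of protein; the project sought stronger binding though the title names inhibitors; some compounds called inactive have numbers as strong as hits; positive values seem to mean higher polarization but the record does not say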
UCH37 DUB inh – blocks the human deubiquitinase UCH37. Q9Y5K5. purified proteasome/UCH37, Ub-AMC cleavage fluorescence. AID 588478. inhibition, % (no concentration beside the values). actives 0.33% (n = 330,000);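 active means mean of two replicates above 20%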;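 further: 0% = compound-free wells with enzyme and 100% = wells lacking proteasome; stock transfer was 100 nL into about 20 µL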
Target sequence (Q9Y5K5 whole entry, looked up): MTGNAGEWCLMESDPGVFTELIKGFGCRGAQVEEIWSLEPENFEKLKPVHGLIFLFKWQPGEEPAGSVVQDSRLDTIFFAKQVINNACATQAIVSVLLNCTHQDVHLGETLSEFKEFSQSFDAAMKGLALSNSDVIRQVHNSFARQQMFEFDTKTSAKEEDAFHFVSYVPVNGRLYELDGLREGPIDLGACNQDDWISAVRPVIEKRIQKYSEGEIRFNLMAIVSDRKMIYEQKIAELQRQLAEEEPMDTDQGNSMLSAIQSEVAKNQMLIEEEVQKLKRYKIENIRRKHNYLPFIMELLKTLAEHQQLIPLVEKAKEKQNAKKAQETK
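Test system – human UCH37 enzyme supplied as purified proteasome complex · Incubation – 30 min preincubation with enzyme, 25 min cleavage at room temperature · Detection – AMC fluorescence from Ub-AMC cleavage, excitation 355 nm, emission 460 nm · Benchmarks – no-proteasome wells (full inhibition) and compound-free wells (no inhibition)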
Beta2AR agonist – human beta-2 adrenergic receptor agonism by FAP; actives 0.43% (n = 340,000); response, % (no concentration beside the values); Am2.2-beta2AR cells, FAP receptor internalization, flow cytometry; reference of the scale not given here; AID 504454;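 active means response above a set limit, near 3 SD of response in nonfluorescent compounds, cut at about 42% in these data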;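 further: stock transfer was 100 nL into about 11 µL; a reference agonist was the positive control; negative values mostly stem from fluorescent compounds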
E coli growth – inhibitors of Escherichia coli growth. OD600, 23 h; stronger effect = lower value. OD600 absorbance (no concentration beside the values). actives 0.21% (n = 330,000). AID 1053175;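 active means OD600 absorbance below the run mean of sample wells minus 3.6 SD, in any replicate, cut at about 0.56 in these data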;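 further: stock transfer was 300 nL into about 60 µL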
rRNA inh HTS OD600 – recorded beside rRNA inh HTS, whose call it bears; OD600 change, %; measured here: OD600 growth;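 optical density of the mix in the first replicate; 0 = DMSO median and -100 = no signal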
rRNA inh HTS RFP – second read-out of rRNA inh HTS, no call of its own (marks repeat the call); RFP signal change, %; measured here: RFP humanized mutant strains;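 first replicate; 0 = DMSO median and -100 = no signal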
An asterisk follows results filed as active; i = inactive; ? = inconclusive; . = no result given; & = joins results of further samples. A portion of the library, so the mix of outcomes need not match the whole.

SMILES	FGF22 binding	rRNA inh HTS	rRNA inh HTS OD600	rRNA inh HTS RFP	ALR H2O2 inh	HNF4A DNA FP	UCH37 DUB inh	Beta2AR agonist	E coli growth
COc1ccc(CCNC(=O)CC2Nc3ccccc3NC2=O)cc1 (configuration not stated)	.	.	.	.	-15	-0.5	-14	1	0.7
O=c1c2ccccc2nnn1CSc1nc2cc(Cl)ccc2c(=O)n1Cc1ccco1	.	.	.	.	-15	.	-2.4	.	0.72
O=C(NNc1ccc([N+](=O)[O-])cc1)c1ccccc1Cl	i	2	-3	-0.8	-28	-1.9	11	4	0.63
COc1ccc(N(CC(=O)N2CCCCC2)S(=O)(=O)c2c(C)nn(C)c2C)cc1	i	1	5	-1.5	-9	-1.0	5.1	0	0.65
CCOC(=O)c1sc(N(Cc2ccccc2)C(=O)COC(=O)c2ccccc2O)nc1C	i	2	-9	-3.5	-12	0.3	-1.0	7	.
COc1ccc2c(C)c(CC(=O)N3CCN(C(=O)C4COc5ccccc5O4)CC3)c(=O)oc2c1C (configuration not stated)	i	0	-1	0.2	-29	2.1	-143	-5	0.66
COc1ccc([C@@H]2CC=C(C(=O)O)[C@H](c3ccc(F)cc3)N2S(=O)(=O)c2ccc(C)cc2)cc1OC	i	-11	-8	0.9	2	1.7	2.6	-6	.
CN(C)S(=O)(=O)c1ccc(C(=O)Nc2cc(=O)n(C)c(=O)n2C)cc1	i	9	1	-1.4	14	1.3	4.6	4	0.71
O=C(Nc1ccc2c(c1)OCO2)C1CC(=O)N(c2ccccc2)C1 (configuration not stated)	i	4	-3	0.9	.	0.7	0.1	4	0.67
CC(C)NC(=O)C1(C)CCN1C(=O)c1ccccc1F (configuration not stated)	i	10	9	0.8	.	1.6	.	.	.
COc1ccccc1NC(=O)CSc1ccc2nnc(-c3ccc(C)cc3)n2n1	i	6	4	0.6	-6	2.2	4.7	-8	0.77
Clc1cccc(NCc2nnc(SCc3ccc(Cl)cc3Cl)o2)c1	.	.	.	.	-2	1.9	3.3	2	0.71
O=C(NCc1ccccc1)c1cc(-c2cccc(O)c2)on1	i	-5	-2	-3.3	-23	3.8	0.1	-8	0.71
Cc1ccc(-c2cc(NC(=O)CCl)n(-c3ccccc3)n2)cc1	.	.	.	.	12	-2.8	4.9	5	0.74
CCOC(=O)[C@H]1[C@H]2COc3ccc(Cl)cc3[C@H]2N2C(=O)CNC(=O)[C@@]12C	i	1	15	2.1	-1	0.1	3.8	6	.
COc1ccc(Br)cc1CNc1ccc(N2CCOCC2)cc1	i	6	7	1.6	?	-4.0	1.0	-14	0.6
O=C(CCc1nnc2ccc(NCc3ccccc3)nn12)NC1CCCC1	i	-5	-1	-1.9	1	2.9	0.9	-11	0.71
CN(CC(=O)Nc1ccccc1Cl)C(=O)CN1C(=O)C2CC=CCC2C1=O (configuration not stated)	i	0	8	-4.2	-24	-0.5	-0.5	-6	0.66
O=C(Nc1ccccc1)[C@@H]1CC=C[C@@H]2CCN(C3CCCCC3)C(=O)[C@@H]21	i	-1	-3	2.6	-5	1.7	6.2	-4	.
CCn1c(=O)c(C(=O)NCc2ccc(F)cc2)c(O)c2ccccc21	i	-8	-6	-1.0	-2	2.9	2.1	8	0.73
CC(C)(C)N(Cc1ccccc1)C(=O)COC(=O)CN1C(=O)NC2(CCCC2)C1=O	i	3	-11	0.7	1	3.2	-0.4	0	0.7
C[C@H](CO)N1C[C@H](C)[C@@H](CN(C)Cc2ccccn2)Oc2ncc(-c3ccccc3)cc2C1=O	i	-2	-2	-1.2	.	3.5	.	.	.
N#Cc1cccnc1N1CCN(C(C(=O)NC2CCCC2)c2ccc(F)cc2)CC1 (configuration not stated)	i	-6	-13	4.5	.	-5.0	.	.	.
COc1cc(S(=O)(=O)NC(C)C)ccc1Cl	.	.	.	.	0	3.2	2.6	1	0.71
CN(C)CCCN(C(=O)c1ccco1)c1nc2c(F)cc(F)cc2s1	i	-1	0	-7.1	-7	1.4	7.7	1	0.66

An excerpt from further up, as a working copy:
SMILES	FGF22 binding	rRNA inh HTS	rRNA inh HTS OD600	rRNA inh HTS RFP	ALR H2O2 inh	HNF4A DNA FP	UCH37 DUB inh	Beta2AR agonist	E coli growth
C[C@H](CO)N1C[C@H](C)[C@@H](CN(C)Cc2ccccn2)Oc2ncc(-c3ccccc3)cc2C1=O	i	-2	-2	-1.2	.	3.5	.	.	.
N#Cc1cccnc1N1CCN(C(C(=O)NC2CCCC2)c2ccc(F)cc2)CC1 (configuration not stated)	i	-6	-13	4.5	.	-5.0	.	.	.
COc1cc(S(=O)(=O)NC(C)C)ccc1Cl	.	.	.	.	0	3.2	2.6	1	0.71
CN(C)CCCN(C(=O)c1ccco1)c1nc2c(F)cc(F)cc2s1	i	-1	0	-7.1	-7	1.4	7.7	1	0.66

(more compounds)
SMILES	FGF22 binding	rRNA inh HTS	rRNA inh HTS OD600	rRNA inh HTS RFP	ALR H2O2 inh	HNF4A DNA FP	UCH37 DUB inh	Beta2AR agonist	E coli growth
C#CCOc1ccc(/C=C2/C(=O)NN(c3ccccc3)C2=O)cc1OC	i	-4	3	1.1	66	-0.4	5.0	1	0.62
COc1ccc(C(=O)N/C(=C\c2ccccc2)C(=O)NC(CC(C)C)C(=O)O)cc1 (configuration not stated)	i	7	5	1.8	-28	0.5	18	1	.
COc1ccccc1N1CCN(c2nnc(-c3ccc(F)cc3)c3ccccc23)CC1	.	.	.	.	7	-4.5	2.1	-1	0.73
COCCOc1ccc(C(F)(F)F)cc1NC(=O)c1ccccc1F	.	.	.	.	-7	3.8	5.0	4	0.7
O=C(O)c1cccc(NC(=O)C23CC4CC(C2)CC(n2cnc(Cl)n2)(C4)C3)c1	.	.	.	.	-11	1.4	-2.7	6	0.7
Cc1occc1C(=O)NCc1ccccc1F	i	1	3	4.6	-2	-1.0	0.7	2	0.73
COc1cccc(-c2nnc(N(C)C(=O)C3CCOC3)s2)c1 (configuration not stated)	.	.	.	.	-3	0.0	-1.1	-8	0.75
CNC(=O)CSc1nnc(-c2ccco2)n1-c1ccccc1	i	-24	-23	-1.5	-1	0.7	2.4	-8	0.73
COc1cc(/C=C2/NC(=O)NC2=O)cc(Br)c1OCc1ccccc1	i	-10	-7	2.2	27	-2.5	2.2	9	.
O=C(O)c1ccc(Cl)c(S(=O)(=O)Nc2ccccc2Cc2ccccc2)c1	i	-19*	-14*	3.4*	3	1.4	3.3	0	0.67
CCOC(=O)c1c(C)c2c(=O)[nH]cnc2n1-c1ccccc1	i	3	10	-3.4	2	0.4	1.1	6	0.64
Cc1ccc(C(C)C)c(OCc2nnc(SCC(=O)Nc3nccs3)n2C)c1	.	.	.	.	1	-2.5	3.0	-1	0.71
O=C(c1cc(-c2ccc(Br)cc2)on1)N1CCCCCC1	i	4	11	-2.6	-1	3.3	3.8	-7	0.73
O=C(Nc1cccc(O)c1)C(=O)Nc1ccccn1	i	5	11	-1.6	13	-3.2	3.8	-7	0.63
CCN(C(=O)c1cc(Cl)ccc1Cl)C1CCS(=O)(=O)C1 (configuration not stated)	i	5	11	-0.7	-9	2.6	1.1	-6	0.62
CSc1ccc(CNCC(O)c2ccccc2)cc1 (configuration not stated)	i	7	-3	-7.8	-4	4.2	0.0	-2	0.68
O=C(NCCN1CCOCC1)C1CCC(CNS(=O)(=O)c2ccc(Cl)cc2)CC1 (configuration not stated)	i	18	8	6.7	-2	0.3	4.1	-3	0.66
Cc1c(C(=O)NNc2c(Cl)cccc2Cl)n(C)oc1=O	i	-22*	5.3*	5.8*	98*	2.0	4.8	6	0.65
COc1ccc(S(=O)(=O)N2CCOCC2)cc1NC(=O)c1cc(=O)[nH]c2ccccc12	i	.	.	.	-5	1.5	2.2	6	0.7
O=S(=O)(Nc1cccc(-n2cnnn2)c1)c1ccccc1F	i	3	0	-5.1	-4	3.6	0.9	2	0.73
C[C@@H]1CN([C@@H](C)CO)C(=O)c2cc(C#CC3CCCCC3)cnc2O[C@@H]1CN(C)S(=O)(=O)c1ccc(F)cc1	i	2&-4	-14&-9	9.4&0.8	.	-2.7	.	.	.
Cc1ccc(N(CC(=O)N2CCCC2)S(C)(=O)=O)c(C)c1	i	4	2	-1.7	-3	-0.5	0.1	3	0.7
Cc1nc(N2CCN(Cc3ccc4c(c3)OCO4)CC2)nc2c1C(=O)CC(c1ccco1)C2 (configuration not stated)	.	.	.	.	-1	-0.5	1.8	1	0.71
CC1CCN(S(=O)(=O)c2cc(Br)cc(C(=O)NC3=NCCS3)c2)CC1	.	.	.	.	-4	-1.6	4.1	0	0.64
O=S(=O)(Nc1cccc2ccccc12)N1CCCC1	i	5	-2	-5.2	9	2.8	-4.1	12	0.62
SMILES	FGF22 binding	rRNA inh HTS	rRNA inh HTS OD600	rRNA inh HTS RFP	ALR H2O2 inh	HNF4A DNA FP	UCH37 DUB inh	Beta2AR agonist	E coli growth
O=S(=O)(c1ccc(F)cc1)N1CCC(O)(c2ccc3c(c2)OCO3)CC1	.	.	.	.	-4	2.4	0.5	-15	0.65
CC1CCCCC1NC(=O)CSc1nnnn1C (configuration not stated)	i	2	8	-2.7	.	2.7	0.5	2	0.66
CCC(C)N1C(=O)N(C)C2NC(=O)NC21 (configuration not stated)	i	1	6	1.2	.	-0.6	1.6	-5	0.71
CCc1nc2c(OCc3ccc(F)cc3)cccn2c1N(C)C(=O)C(C)C	i	0	-20	4.6	.	8.5	.	.	.
Cn1c(SCC(=O)N2CCOCC2)nnc1-c1ccc(Cl)cc1Cl	.	.	.	.	-10	-2.7	2.5	4	0.73
Cc1ccc2c(c1)Oc1ccc(NC(=O)CCCl)cc1C(=O)N2	i	-15	0	3.3	12	0.2	2.3	17	0.7
O=C(CSc1ccc(Cl)cc1)Nc1cccc(-c2nnc(-c3ccco3)o2)c1	i	1	7	0.9	-14	2.6	0.0	-12	0.69
COC(=O)C1=CN(c2ccc(F)cc2)C=C(C(=O)OC)C1c1ccc([N+](=O)[O-])cc1	i	8	11	-1.2	-24	0.1	3.9	-8	0.7
Cc1ccc(CN2C(=O)CCC2C(=O)NCCN2CCOCC2)cc1 (configuration not stated)	.	.	.	.	1	0.6	0.1	1	0.7
COc1ccc(CNC(=O)c2cccc(-c3ccc(C)c4ccccc34)n2)cc1	.	.	.	.	.	1.5	2.6	-2	0.73
CCc1cccc(CC)c1NC(=O)C1CC(=O)N(c2ccc3c(c2)OCCO3)C1 (configuration not stated)	.	.	.	.	-1	-1.5	1.7	2	0.68
CCC/C(O)=C1\C(=O)CCCC1=NCCc1c(C)[nH]c2ccc(C)cc12	i	3	1	-8.5	48	0.0	-2.1	-1	0.72
O=C(CSc1nc2c(cnn2-c2ccccc2)c(=O)[nH]1)c1ccc(Cl)cc1	i	-1	2	0.7	19	-40	1.0	-10	0.71
COCc1ccc(C(=O)NC2CC(C)(C)Cc3c2cnn3-c2ccc(OC)cc2)o1 (configuration not stated)	i	-1	-6	1.9	-2	1.2	1.4	-3	0.69
CCOC(=O)C1=C(C)N(CCC(=O)O)C(=O)NC1c1ccccc1Cl (configuration not stated)	i	7	-8	-2.1	-1	8.1	-0.7	-2	0.67
O=C(CS(=O)(=O)c1ccccc1)N1CCc2ccccc21	i	13	14	3.1	.	5.4	1.5	-7	0.71
Cc1c(Cl)cccc1NC(=S)NCC(c1cccnc1)N(C)C (configuration not stated)	i	19	-3	0.0	-4	-10	0.7	5	0.66
